Assay outcomes from PubChem.
HPGD block = inhibitors of human 15-hydroxyprostaglandin dehydrogenase (HPGD) | purified HPGD, NADH fluorescence kinetic, PGE2 substrate | P15428 | Potency, µM, for the others: at the highest dose activity change, negative = inhibition, usual class: inhibitors | actives 4.3% (n = 150,000); active = well fitted inhibition curve with a large enough effect (not every such curve was filed as active); inconclusive = small, poorly fitted or top-dose-only effect, or another doubt; inactive = no such curve, though single readings can be large or run the other way;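 note: top concentration of the series not given in the record; plate controls included wells without enzyme; inactives centre near -10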
Target sequence (P15428 whole entry, looked up): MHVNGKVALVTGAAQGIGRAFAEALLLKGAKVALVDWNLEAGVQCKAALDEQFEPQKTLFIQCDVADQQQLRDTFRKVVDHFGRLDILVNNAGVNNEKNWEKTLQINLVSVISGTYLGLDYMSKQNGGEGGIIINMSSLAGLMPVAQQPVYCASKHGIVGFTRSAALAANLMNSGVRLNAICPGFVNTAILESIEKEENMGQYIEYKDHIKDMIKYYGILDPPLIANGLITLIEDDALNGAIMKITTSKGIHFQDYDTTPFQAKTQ
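20 nM HPGD preincubated 15 min at room temperature with compound in 50 mM Tris-HCl pH 8, 0.01% Tween 20. Started with 1 mM NAD+ and 30 uM prostaglandin E2; NADH fluorescence (360/450 nm) read 5 times over 30-s intervals, last minus first.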
An asterisk follows results filed as active; [ ] = dose if it differs, or a comment. % is set by controls: 0 for no effect and ±100 for the full control effect; potency is the fitted concentration of half-maximal effect. A portion of the library, so the mix of outcomes need not match the whole.

How did CC(=O)N1CCc2cc(S(=O)(=O)NC(CC(C)C)C(=O)Nc3cc(C(=O)O)ccc3C)ccc21 (stereo not given) do in these assays?
HPGD block: -8.9%

Results for COc1cccc(-n2c(SCC(=O)N3CCc4ccccc43)nnc2-c2c[nH]c3ccccc23)c1 ?
HPGD block: -15.0%

How did CC(C)OC(=O)CCCN1C(=O)c2ccc(N)cc2C1=O do in these assays?
HPGD block: -10.9%

How did OC(COc1ccccc1)Cn1cc(Br)cn1 (stereo not given) do in these assays?
HPGD block: inconclusive

How did CCOC(=O)C/C(C)=N/NC(=O)Nc1ccccc1 do in these assays?
HPGD block: -1.6%

How did CCCOc1ccc(C(=O)N2CCCc3ccccc32)cc1 do in these assays?
HPGD block: 15.8µM*

How did CCOC(=O)Nc1ccc2c(c1)nc(CN1CCN(C(C)=O)CC1)n2C do in these assays?
HPGD block: -2.2%

How did CCOc1ccccc1-n1c(SCC(=O)N2CCCc3ccccc32)nnc1-c1cccnc1 do in these assays?
HPGD block: -0.7%

How did CC(C)C12CN3CCN(CC(C3)/C1=N\NC(=O)Nc1ccccc1)C2 do in these assays?
HPGD block: -2.5%

How did CCSc1ncnc2sc(C)c(C)c12 do in these assays?
HPGD block: inconclusive

Results for CCNS(=O)(=O)c1ccc(CCC(=O)Nc2ccccc2C(=O)OC)cc1 ?
HPGD block: -8.0%

How did CCN(CC)c1nc(-c2nn[nH]n2)nc(N(CC)CC)n1 do in these assays?
HPGD block: 3.0%

What do the screens show for `CC(=O)Nc1ccccc1N(C)S(=O)(=O)c1ccc(C)cc1`?
HPGD block: -8.1%

Results for Cc1ccc(SCCCn2cnc3ccccc3c2=O)cc1 ?
HPGD block: -11.5%

Results for O=c1cnc2cnc(Oc3ccccc3)nc2n1C[C@H]1CCCO1 ?
HPGD block: -14.0%

What do the screens show for `O=C(CNc1ccc(Br)cc1)NNC1=NCCC1`?
HPGD block: -0.9%

Results for O=C(O)c1cc(-c2ccccc2)c(N2CCOCC2)s1 ?
HPGD block: -8.0%

How did Nc1nc2c(C(=O)NCc3cccs3)nnn2c2cccc(Cl)c12 do in these assays?
HPGD block: -7.0%

Results for Cc1cc(Cl)ccc1NC(=O)NC1CCN(S(=O)(=O)c2ccc(F)cc2)CC1 ?
HPGD block: -10.3%

What do the screens show for `COc1ccc(-c2coc3cc4oc(=O)cc(C)c4cc23)cc1F`?
HPGD block: inconclusive

Looked up one by one from the entries so far:
Results for O=c1cnc2cnc(Oc3ccccc3)nc2n1C[C@H]1CCCO1 ?
HPGD block: -14.0%

What do the screens show for `O=C(CNc1ccc(Br)cc1)NNC1=NCCC1`?
HPGD block: -0.9%

Results for Cc1ccc(SCCCn2cnc3ccccc3c2=O)cc1 ?
HPGD block: -11.5%

What do the screens show for `CC(=O)Nc1ccccc1N(C)S(=O)(=O)c1ccc(C)cc1`?
HPGD block: -8.1%

What do the screens show for `COc1ccc(-c2coc3cc4oc(=O)cc(C)c4cc23)cc1F`?
HPGD block: inconclusive

How did Nc1nc2c(C(=O)NCc3cccs3)nnn2c2cccc(Cl)c12 do in these assays?
HPGD block: -7.0%

Carrying on:
Results for O=C(COC(=O)CC(c1ccccc1)c1ccccc1)NCc1ccccc1 ?
HPGD block: -15.5%

How did O=C(NC1(C(F)(F)F)NC(=O)N(c2ccc(F)cc2)C1=O)c1cccs1 (stereo not given) do in these assays?
HPGD block: 2.7%

How did CCCn1c2c(c(O)c(C(=O)Nc3ccccc3)c1=O)CCCC2 do in these assays?
HPGD block: -10.4%

How did O=C(N/N=C/c1ccncc1)/C(=C/c1ccccc1)NC(=O)c1ccccc1 do in these assays?
HPGD block: -15.8%

Results for O=S(=O)(c1ccccc1S(=O)(=O)N1CCCCC1)N1CCCCC1 ?
HPGD block: -4.5%

Results for COCCNC(=O)c1onc(CSc2cccc(OC)c2)c1C(=O)O ?
HPGD block: -6.1%

What do the screens show for `Cc1nn(-c2ccccc2)c(=S)n1-c1ccccc1`?
HPGD block: -5.0%

What do the screens show for `Nc1nc(N)c(-c2cccc(C(F)(F)F)c2)c(Cc2cccc(C(F)(F)F)c2)n1`?
HPGD block: -12.0%

What do the screens show for `Cc1nn(Cc2ccccc2)c(C)c1NC(=O)c1cccs1`?
HPGD block: -1.5%

Results for COCCNC(=O)CSCc1c(F)cccc1Cl ?
HPGD block: 22.4µM*

Results for FC(F)(F)C12CC(c3ccccc3)=NCCN1CCN2 (stereo not given) ?
HPGD block: -17.1%

Results for Cc1ccc(Cc2cnc(NC(=O)c3ccco3)s2)cc1 ?
HPGD block: -6.4%

Results for COc1ccc(/C=C2\C(=O)NC(=S)N2C(=O)c2ccc(C)cc2)cc1 ?
HPGD block: inconclusive

Results for Cc1cnc(C)c(N2CCC(C(=O)NC(C)c3cccs3)CC2)n1 (stereo not given) ?
HPGD block: -15.7%

Results for COc1cccc(CNc2cc(CSc3ccc(Cl)cc3)nc(C)n2)c1 ?
HPGD block: -7.8%

How did CCC(=O)Nc1ccc(C(=O)CSc2nnc(-c3ccc(NS(C)(=O)=O)cc3)n2C)cc1OC do in these assays?
HPGD block: -22.2%

What do the screens show for `Cc1ccc(C)c(S(=O)(=O)N2CCN(CC(=O)Nc3ccc4c(c3)CCC4)CC2)c1`?
HPGD block: -4.5%

How did O=C(OC1CCN(c2ncc(C(F)(F)F)cc2Cl)CC1)c1cccc(C(F)(F)F)c1 do in these assays?
HPGD block: inconclusive

How did CCC1CCCCN1C(=O)CSc1nnc(-c2ccc(OC)cc2)o1 (stereo not given) do in these assays?
HPGD block: -11.6%

How did CCOC(=O)C1=C(CSc2nc3ccccc3s2)NC(=O)NC1c1ccc(OC)cc1 (stereo not given) do in these assays?
HPGD block: -13.7%

3 successive entries already listed:
How did O=C(OC1CCN(c2ncc(C(F)(F)F)cc2Cl)CC1)c1cccc(C(F)(F)F)c1 do in these assays?
HPGD block: inconclusive

How did CCC1CCCCN1C(=O)CSc1nnc(-c2ccc(OC)cc2)o1 (stereo not given) do in these assays?
HPGD block: -11.6%

How did CCOC(=O)C1=C(CSc2nc3ccccc3s2)NC(=O)NC1c1ccc(OC)cc1 (stereo not given) do in these assays?
HPGD block: -13.7%

Later entries:
How did Fc1ccccc1NC(=S)N1CCN(c2ccccn2)CC1 do in these assays?
HPGD block: -11.8%

Results for Cc1ccccc1Nc1nc(CSc2nnnn2-c2ccccc2)cs1 ?
HPGD block: inconclusive

What do the screens show for `COCCNS(=O)(=O)c1ccc2c(c1)oc(=O)c1cc(S(=O)(=O)NCCOC)ccc12`?
HPGD block: -5.4%

Results for CCn1c(C)c(C2=CCN(S(=O)(=O)c3ccc(C)cc3)CC2)c2ccccc21 ?
HPGD block: -24.5%

How did CC(=O)c1ccc(Oc2ncnc3sccc23)c(CN2CCOCC2)c1 do in these assays?
HPGD block: 25.1µM*

Results for O=C(C1CC1)N(CCN(Cc1ccccc1)C(=O)C1CC1)Cc1ccccc1 ?
HPGD block: -9.8%

Results for Fc1ccc(F)c(CN2CCN(c3ncccn3)CC2)c1 ?
HPGD block: -5.6%

What do the screens show for `Cc1cc(Br)cc(C)c1NC(=S)NC(=O)CC(C)C`?
HPGD block: -1.4%

Results for Cc1ccc(S(=O)(=O)N(C)CC(=O)N2CCN(c3ccccn3)CC2)cc1 ?
HPGD block: -11.3%

How did COc1cccc(/C=C(/C(=O)OCC(=O)NC2CCCCCCC2)c2ccccc2)c1 do in these assays?
HPGD block: -12.7%

Results for CCCCCCC(=O)Nc1ccc(C(=O)N2CCCC2)cc1 ?
HPGD block: 3.98µM*

Results for CC(Oc1ccc(Cl)cc1Cl)C(=O)NN=C1CCN(C)CC1 (stereo not given) ?
HPGD block: -2.8%

How did O=c1oc2ccc(Cl)cc2cc1-c1ccccc1 do in these assays?
HPGD block: -26.9%

What do the screens show for `CCC1Oc2ccc(C)cc2N(CC(=O)NCC2COc3ccccc3O2)C1=O` (stereo not given)?
HPGD block: -6.6%

What do the screens show for `N#Cc1nc(N2CCOCC2)nc(N2CCOCC2)n1`?
HPGD block: -12.5%

Results for COc1ccc2oc(=O)cc(C)c2c1 ?
HPGD block: inconclusive

Results for COc1c(O)cc2c(-c3ccccc3)cc(=O)oc2c1OC ?
HPGD block: -25.3%

Results for O=C(c1ccc(C(=O)N2CCCCCC2)cc1)N1CCCCCC1 ?
HPGD block: 7.94µM*

What do the screens show for `O=C(O)C1C2C=CC3(CN(c4cccc(C(F)(F)F)c4)C(=O)C13)O2` (stereo not given)?
HPGD block: -15.1%

Results for C=CCN1C(=O)/C(=C/c2ccccc2)S/C1=N/c1nccs1 ?
HPGD block: -6.7%

How did CC(C)NC(=O)c1ccc(OC2CSC2)cc1 do in these assays?
HPGD block: -22.1%

What do the screens show for `COc1ccc(CN(C)CCc2ccccn2)c(OC)c1OC`?
HPGD block: -0.9%

Results for Cc1nc2ccc(C(=O)O)cc2[nH]1 ?
HPGD block: -5.8%

What do the screens show for `O=C(Nc1nnc(-c2ccccc2)o1)C1CCCCC1`?
HPGD block: -17.3%

What do the screens show for `NNC(=O)CCc1c[nH]c2ccccc12`?
HPGD block: -11.5%

How did CCN1C(=O)CC(N2CCN(c3ccc(C(=O)c4ccncc4)cc3)CC2)C1=O (stereo not given) do in these assays?
HPGD block: -12.5%

What do the screens show for `COc1cc(C(N)=O)cc(Br)c1OCc1ccccc1`?
HPGD block: -6.9%

What do the screens show for `CC(=O)c1cccc(-n2nnnc2SCC(=O)N2CCCC2)c1`?
HPGD block: -15.4%

Results for Cc1c(OCc2ccc(C(=O)O)o2)ccc2c3c(c(=O)oc12)CCC3 ?
HPGD block: inconclusive

How did CC1(C)CC(=O)c2c(O)cc(OCc3ccc([N+](=O)[O-])cc3)cc2O1 do in these assays?
HPGD block: -16.8%

Results for CCN(CC)S(=O)(=O)c1ccc(NC(=O)CC(NC(C)=O)c2ccccc2)cc1 (stereo not given) ?
HPGD block: 1.0%

What do the screens show for `O=C(NCc1cccnc1)c1cc(Sc2cccc(Cl)c2)nc2ccccc12`?
HPGD block: -16.3%

What do the screens show for `O=C(c1ccccc1NS(=O)(=O)c1cccs1)N1CCOCC1`?
HPGD block: 0.0%

What do the screens show for `CCC(CC)NC(=O)COC(=O)c1ccc(NS(=O)(=O)c2ccc3c(c2)OCCO3)cc1`?
HPGD block: 25.1µM*

Results for O=c1c2ccccc2oc2nc(-c3ccco3)n(-c3ccccc3)c(=O)c12 ?
HPGD block: 30.2%[activator]

What do the screens show for `CCCC(C)C(=O)Nc1ccc2c(c1)OCCO2` (stereo not given)?
HPGD block: -14.0%

How did COc1ccc(OCC(=O)Nn2c(-c3ccc(C)cc3)nc3ccccc3c2=O)cc1 do in these assays?
HPGD block: -10.9%

Results for Cc1ccc(S(=O)(=O)N(C)CC(=O)NC2CC(C)(C)NC(C)(C)C2)cc1 ?
HPGD block: -9.4%

How did O=C(O)c1ccc(-n2nc(C(F)(F)F)c3c2CCCC3)cc1 do in these assays?
HPGD block: -19.2%

How did CCNc1ccc(S(=O)(=O)N(C)C)cc1NCC(=O)Nc1ccc(Br)cc1F do in these assays?
HPGD block: -21.7%

What do the screens show for `CC1(C)CC(CC(=O)O)(c2ccc(Cl)cc2)CCO1` (stereo not given)?
HPGD block: -17.7%

How did Cn1c(C(=O)N2CCOCC2)cnc1Sc1ncc(C(F)(F)F)cc1Cl do in these assays?
HPGD block: -6.6%

Results for Cc1noc(NS(=O)(=O)c2ccc(N/C=C\C(=O)c3ccncc3)cc2)c1C ?
HPGD block: -24.5%

What do the screens show for `Cc1ccc(-n2ncc3c(=O)n(CC(=O)N4CCN(c5ccccc5F)CC4)cnc32)cc1C`?
HPGD block: -14.5%

Results for CS(=O)(=O)N(CC(=O)Nc1ccc2c(c1)OCO2)c1ccc2c(c1)OCO2 ?
HPGD block: -3.6%

Results for COc1ccc(/C=N/NC(=S)NCc2ccccc2)cc1OC ?
HPGD block: -18.7%

Results for COCCCNc1c2c3c(cccc3[nH]c1=O)C(=O)c1ccccc1-2 ?
HPGD block: -15.6%

Results for COc1ccc(NC(=O)N2CC3(CCN(S(=O)(=O)c4ccccc4)CC3)C2)cc1 ?
HPGD block: -0.8%

Results for CS(=O)(=O)c1ccc2nc(NC3(C(F)(F)F)N=C4SCCN4C3=O)sc2c1 (stereo not given) ?
HPGD block: 0.4%

What do the screens show for `COc1ccc(C(=O)N2CCN(S(=O)(=O)c3ccc(C)cc3C)CC2)cc1OC`?
HPGD block: -18.3%

What do the screens show for `Cn1c(NCCCN2CCOCC2)nc2c1c(=O)n(Cc1ccc(Cl)cc1)c(=O)n2C`?
HPGD block: -6.5%

Results for CN(C)S(=O)(=O)c1ccc(Cl)c(NC(=O)CSc2nc3ccccc3c(=O)n2CCCN2CCOCC2)c1 ?
HPGD block: -3.0%

How did O=c1[nH]c(CSc2ccccn2)nc2c1cnn2-c1ccccc1 do in these assays?
HPGD block: -4.7%

How did O=C(CSc1ncnc2c1oc1ccccc12)Nc1nc2ccccc2s1 do in these assays?
HPGD block: -9.5%

Results for CCCc1nnc(NC(=O)CCC(=O)N2CCN(C3c4ccccc4-c4ccccc43)CC2)s1 ?
HPGD block: -8.9%

How did CCC(=O)N1CCc2cc(Br)cc(S(=O)(=O)N3CCCCCC3)c21 do in these assays?
HPGD block: -6.8%

How did FC(F)(F)c1cccc(-c2ccc(-c3csnn3)o2)c1 do in these assays?
HPGD block: -23.8%

Results for COc1ccc2c(c1)C(C)CC(C)(C)N2C(=O)CSc1ncn[nH]1 (stereo not given) ?
HPGD block: -12.0%

Results for CCC(C)NC(=O)C1CCN(S(=O)(=O)CC)CC1 (stereo not given) ?
HPGD block: 3.1%

What do the screens show for `CCSc1nnc(CNc2ccc(F)cc2)n1CC1CCCO1` (stereo not given)?
HPGD block: -4.5%
